# Screening data: PubChem BioAssay, National Center for Advancing Translational Sciences (NCATS)
# HPGD block: blocks human HPGD enzyme activity. 150,000 compounds, 4.3% hits. P15428. AID 894. purified HPGD, NADH fluorescence kinetic, PGE2 substrate. Potency, µM, for inactives: at the top dose activity change, negative = inhibition, most hits filed as inhibitors; active = well fitted inhibition curve with a large enough effect (not every such curve was filed as active); inconclusive = small, poorly fitted or top-dose-only effect, or another doubt; inactive = no such curve, though single readings can be large or run the other way;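 further: top concentration of the series not given in the record; plate controls included wells without enzyme; inactives centre near -10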
# Target sequence (P15428 whole entry, looked up): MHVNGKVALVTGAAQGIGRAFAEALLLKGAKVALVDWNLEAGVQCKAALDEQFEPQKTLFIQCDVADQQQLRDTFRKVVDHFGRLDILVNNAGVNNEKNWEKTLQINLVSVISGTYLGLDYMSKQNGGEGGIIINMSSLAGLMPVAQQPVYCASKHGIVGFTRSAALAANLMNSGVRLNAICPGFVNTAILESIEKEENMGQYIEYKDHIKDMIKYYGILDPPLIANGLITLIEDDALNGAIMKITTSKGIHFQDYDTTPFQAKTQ
#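 20 nM HPGD preincubated 15 min at room temperature with compound in 50 mM Tris-HCl pH 8, 0.01% Tween 20. Started with 1 mM NAD+ and 30 uM prostaglandin E2; NADH fluorescence (360/450 nm) read 5 times over 30-s intervals, last minus first.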
# * marks the source's active call; other numbers are inactive results; ? = inconclusive; & = joins results of further samples; ! = a repeat was not active; [ ] = remark or other dose. On the % scale 0 is the no-effect control and ±100 the full control effect; potency means the concentration at half of the fitted maximal effect.
Compound	HPGD block
CCOP(=O)(OCC)c1nc(-c2cccc3ccccc23)oc1N1CCOCC1	?
CCC(C)C(=O)O[C@@H]1C[C@@]2(C)C(c3ccoc3)OC(=O)CC23OC2(C)O[C@@]14[C@@]1(C)C(CC(=O)OC)C5(C)CC1(O)C(O)(C5OC(=O)C1(C)OC1C)C(OC(C)=O)[C@@]34O2 (stereo not given in full)	-23%
NC(CO)Cc1ccccc1 (stereo not given)	-7%
CCN1C[C@@]2(COC)C3[C@@H](OC)[C@H]4C1[C@@]3(C1C[C@]3(O)C(OC)[C@H](O)[C@@]4(OC(C)=O)C1[C@H]3OC(=O)c1ccccc1)[C@H](OC)C[C@H]2O (stereo not given in full)	-10%
Oc1cccc(Cl)c1Cl	-1%
O=C1Nc2ccc(Cl)cc2C(c2ccccc2Cl)=NC1O (stereo not given)	-1%
CCCCN1C2CCC1CC(OC(c1ccc(F)cc1)c1ccc(F)cc1)C2 (stereo not given)	-17%
C=CCC1(CN2CCCCCC2=O)C(=O)NC(=O)NC1=O	-3%
CCOC(=O)C(=CNc1ccc(C(O)(C(=O)OCC)C(F)(F)F)cc1C)C(=O)OCC (stereo not given)	-20%
COC1=CC(=O)O[C@@H](/C=C/c2ccccc2)C1	-9%
O=C(Nc1ccccc1)N1CC[C@@]2(CCCN(C(=O)Oc3ccccc3)C2)C1	-3%
C=CCc1cc(OC)c2c(c1OC)OCO2	-11%
COC(=O)C(O)(c1ccc(NC(=O)NC2CCCCC2)cc1)C(F)(F)F (stereo not given)	0%
NCCSC(c1ccccc1)c1ccccc1	-8%
COC(=O)[C@H]1C(=O)[C@H](C(=O)OC)[C@@H]2CC[C@H]1N2C	3%
O=C(CCN1C(=O)COc2ccccc21)N1CCC2(CC1)OCCO2	-9%
C=C(C)c1ccccc1	-1%
Cc1ccccc1CS(=O)(=O)Cc1ccc(C(=O)N2CCC3(CC2)OCCO3)o1	-3%
O=C1CC2OCC=C3CN4CC[C@@]56c7ccccc7N1C5C2C3CC46 (stereo not given in full)	-3%
N[C@@H](CCP(=O)(O)O)C(=O)O	-18%&-10%
c1ccc(C2CC3CC(c4ccco4)N2O3)cc1 (stereo not given)	-2%
O=c1c2ccccc2nc(/C=C/c2ccc3c(c2)OCO3)n1-c1cccc(O)c1	-15%
CCc1ccccc1NC(=O)CSc1nnc([C@@H](N)Cc2c[nH]c3ccccc23)o1	-14%
Cc1cc2c(s1)NC(=O)CN=C2c1cccs1	25µM*
COC(=O)COc1cc(C)cc2oc(=O)c3c(c12)CCCC3	?
O=C1/C(=C\c2ccc3c(c2)OCO3)N2CCC1CC2	25µM*
C[C@H]1C2Cc3ccc(O)cc3[C@]1(C)CCN2CC1CC1	-9%
COc1ccc(OC)c(-n2c(O)c(C=Nc3c(C)n(C)n(-c4ccccc4)c3=O)c(=O)[nH]c2=O)c1	-6%
Cc1ccc(S(=O)(=O)N2CN3CCN(C3)C2)cc1	-7%
NC1(c2ccccc2Cl)CCCCC1=O (stereo not given)	-18%
O=C1NC(=O)C2(Cc3ccccc3N3CCCC32)C(=O)N1 (stereo not given)	-8%
CC[C@H](C)C(=O)O[C@@H]1[C@H](O)[C@@H]2[C@H](CN3C[C@@H](C)CC[C@@H]3[C@@]2(C)O)[C@@H]2C[C@@]34O[C@@]5(O)[C@@H](OC(=O)[C@](C)(O)CC)CC[C@@]3(C)[C@H]5[C@H](OC(C)=O)[C@@H](OC(C)=O)[C@H]4[C@]12O	4%
c1cc(C2N3CCCN2CC3)ccn1 (stereo not given)	-11%
CN1CCc2nc(N)c(C#N)c(-c3ccccc3)c2C1	?
S=c1[nH]nc(-c2ccco2)n1-c1cccc2ccccc12	?
Cc1cccc(N=Cc2c(O)n(-c3ccccc3C)c(=O)[nH]c2=O)c1	?

# Reformatted with each value named: two of the compounds above.
O=C1NC(=O)C2(Cc3ccccc3N3CCCC32)C(=O)N1 (stereo not given)
  HPGD block = -8%
c1cc(C2N3CCCN2CC3)ccn1 (stereo not given)
  HPGD block = -11%

# Remaining list, next part
Compound	HPGD block
CCc1c(C)nc(N)nc1N1N=C1SCC#N	-18%
CC[C@@](O)(C(=O)O)c1cc2n(c(=O)c1CO)Cc1cc3ccccc3nc1-2	?
Cc1ccc(N=Nc2c(O)[nH]c(=O)[nH]c2=O)c([N+](=O)[O-])c1	-14%
COc1ccc(-c2nc(CSCC(=O)N3CCC4(CC3)OCCO4)c(C)o2)cc1OC	?
CCCCc1nc2ccccc2c(=O)n1-c1ccc(Cl)cc1[N+](=O)[O-]	-4%
CCCc1cc2c(n1Cc1ccc(C)cc1)C(C)C1CN(C(=O)c3ccccc3)C(C)(C(=O)OC)C21 (stereo not given)	-20%
Cc1ccc(O)c(C)c1	-13%
Cc1nn(Cc2ccccc2)c(C)c1C(=O)OCC(=O)NCc1ccco1	-10%
C=CCn1c(O)c(C(C)=NC2CC2)c(=O)[nH]c1=O	0%
CN(C)c1ccc(C=C(C#N)C#N)cc1	-5%
Cc1nn(Cc2ccccc2)c(C)c1C=C1C(=O)NC(=S)NC1=O	?
Oc1ccc2c3c1O[C@H]1c4[nH]c5ccccc5c4C[C@]4(O)[C@H](C2)N(CC2CC2)CC[C@@]314	-7%
COC(=O)c1ccccc1C(=O)OC	-6%
COCCCN1Cc2ccccc2C1=N	-6%
NC(=O)c1ccc(N)nc1	-17%
Fc1ccc(C2=CCN(C(c3cccs3)c3nnnn3CCc3ccccc3)CC2)cc1 (stereo not given)	-9%
N#C/C(N)=C(/N)C#N	-11%
c1cc(CN2CCC3(CCNCC3)CC2)ccn1	?
O=C(Cn1ncc2ccsc2c1=O)N1CCC2(CC1)OCCO2	0%
CC(=O)OC1C2CCC1C(N1CCCC1)CC2 (stereo not given)	0%
O=C1C2CCCN2C(c2cccc(Cl)c2)N1c1ccccn1 (stereo not given)	-8%
O=c1[nH]c(CN2CCNCC2)nc2ccccc12	-7%
C(#CCN1CCOCC1)COCc1ccccc1	-16%
CCN=C=NCCCN(C)C	0%
O=C(O)CS(=O)(=O)C(c1ccccc1)c1ccccc1	-9%
CCN(CC)CCCOC(=O)C(OC)(c1ccccc1)c1ccccc1	-1%
Cn1c2ccccc2c2cnn(CC(=O)N3CCC4(CC3)OCCO4)c(=O)c21	?
CC(C)CCC1(CCN)C(=O)NC(=O)NC1=O	-5%
O=c1cc(-c2ccc(O)c(O)c2)oc2cc(O)cc(O)c12	11µM*!
CN1CCc2nc3ccc(F)cc3c(C(N)=O)c2C1	1%
O=S(=O)(c1ccccc1)N1CCCCC1c1cccnc1 (stereo not given)	4%
CC(C)C1(C)N=C(c2nc3ccccc3cc2C(=O)O)NC1=O (stereo not given)	-23%
CN(C)N=O	-2%
CN1CCN(c2ccc([N+](=O)[O-])c3cccnc23)CC1	-5%
CCOP(=O)(C#CC(C)(C)C)C(C)(O)c1ccccc1 (stereo not given)	-1%
N#CCCn1cc(C(=O)Nc2ccccc2Br)c(-c2ccc3c(c2)OCCO3)n1	-5%

# Copied from the list.
# CN1CCc2nc3ccc(F)cc3c(C(N)=O)c2C1 | HPGD block = 1%
# CN(C)N=O | HPGD block = -2%
# CC(C)CCC1(CCN)C(=O)NC(=O)NC1=O | HPGD block = -5%
# O=c1cc(-c2ccc(O)c(O)c2)oc2cc(O)cc(O)c12 | HPGD block = 11µM*!
# CC(C)C1(C)N=C(c2nc3ccccc3cc2C(=O)O)NC1=O (stereo not given) | HPGD block = -23%
# O=S(=O)(c1ccccc1)N1CCCCC1c1cccnc1 (stereo not given) | HPGD block = 4%

# By substructure: the entries above containing an aryl methoxy group
Compound	HPGD block
C=CCc1cc(OC)c2c(c1OC)OCO2	-11%
COc1ccc(OC)c(-n2c(O)c(C=Nc3c(C)n(C)n(-c4ccccc4)c3=O)c(=O)[nH]c2=O)c1	-6%
COc1ccc(-c2nc(CSCC(=O)N3CCC4(CC3)OCCO4)c(C)o2)cc1OC	?

# Other compounds:
Compound	HPGD block
O=C(OC1Cc2c(O)cc(O)cc2OC1c1cc(O)c(O)c(O)c1)c1cc(O)c(O)c(O)c1 (stereo not given)	14µM*
O=[N+]([O-])c1ccc(C2C3C(c4ccccc4)=NC4(CCCC4)N32)cc1 (stereo not given)	-8%
CC(C)Oc1ccc(C2C(C#N)=C(N)Oc3c2c(=O)oc2ccccc32)cc1 (stereo not given)	-20%
N#Cc1ccc(CN2CC[C@@]3(CCCN(C(=O)Oc4ccccc4)C3)C2)cc1	-8%
CC(N)Cc1c[nH]c2cc3c(cc12)OCCO3 (stereo not given)	-26%
Cc1cccc(OC(=O)N2CCOCC2)c1	-5%
OCc1cnc[nH]1	-3%&-9%
COC1CC(OC2CC[C@@]3(C=O)C4CC[C@]5(C)C(C6=CC(=O)OC6)CC[C@@]5(O)C4CC[C@]3(O)C2)OC(C)C1O (stereo not given in full)	1%
CC(C)OC(=O)Nc1cccc(Cl)c1	13µM*
O=C(Cn1ncc2c3ccccc3n(Cc3ccc(F)cc3)c2c1=O)N1CCC2(CC1)OCCO2	?
CN1CCN(C(=O)O[C@H]2c3nccnc3C(=O)N2c2ccc(Cl)cn2)CC1	-13%
CC(=O)c1c(O)n(C)c(=S)n(-c2ccccc2)c1=O	-9%
CN(C)C(=O)On1c(-c2ccccc2)nc2ccc(Cl)cc21	124%[activator]
Cc1ccc(C(=O)C2(C)N(O)C(C)C(c3cccs3)=[N+]2[O-])cc1 (stereo not given)	-5%
Cc1cc(C=O)c(C)n1C1CCCCC1	-7%
COc1ccccc1CN1CCN(C(=O)Cc2ccccc2)CC1	-1%
N#CC1=C(N)Oc2c(c(=O)oc3ccccc23)C1c1ccccc1OC(=O)c1cccs1 (stereo not given)	-15%
CCCCC12CNCC(C)(CNC1)C2=O	-9%
c1ccoc1	-3%
CCCCn1c(C)c(C(=O)O)c2cc(OC)ccc21	-19%
Fc1cccc(C2NCCc3[nH]cnc32)c1 (stereo not given)	-12%
NCCCNCCCCNCCCNC(=O)Cc1ccc(O)cc1	-1%
CCC(=NCc1ccco1)c1c(O)n(Cc2ccccc2)c(=O)[nH]c1=O	16µM*
CCCCCCN=C(CC)c1c(O)n(CCCC)c(=O)[nH]c1=O	-19%
CCCCCn1c(=O)c(C(=O)NCc2ccncc2)c(O)c2ccccc21	?
COc1ccc(N2CCN(C(CNC(=O)Oc3ccccc3)c3cccnc3)CC2)cc1 (stereo not given)	-8%
COc1ccc(C(=O)Nc2ccccc2C(=O)NC(C(=O)NCc2ccco2)C(C)C)cc1 (stereo not given)	?
CCCN(CCC)c1c([N+](=O)[O-])cc(C(F)(F)F)cc1[N+](=O)[O-]	-8%&-7%
O=C(CCN1CCCCC1)NCC(=O)Nc1ccc(Br)cc1C(=O)c1ccccc1	-12%
CCOC(=O)CBr	-12%
O=C(COc1ccc2ccccc2c1)N1CCN(Cc2c[nH]c3ccccc23)CC1	-3%
C=CCn1c(O)c(N=Nc2c(C)n(C)n(-c3ccccc3)c2=O)c(=O)[nH]c1=S	-23%
O=C(O)C1(c2ccc(Cl)cc2)CCC1	-6%
C#CCN1C(C)=C(C(=O)CCO)[C@@H](c2cccc(-n3oo3)c2)C(C(=O)OC)=C1C	-30%
CC(=O)Oc1ccc(/C=C/c2cc(OC(C)=O)cc(OC(C)=O)c2)cc1	-25%

# Reformatted with each value named: 4 of the compounds above
> N#CC1=C(N)Oc2c(c(=O)oc3ccccc23)C1c1ccccc1OC(=O)c1cccs1 (stereo not given)
  HPGD block: -15%
> O=C(CCN1C(=O)COc2ccccc21)N1CCC2(CC1)OCCO2
  HPGD block: -9%
> CN(C)c1ccc(C=C(C#N)C#N)cc1
  HPGD block: -5%
> O=C1C2CCCN2C(c2cccc(Cl)c2)N1c1ccccn1 (stereo not given)
  HPGD block: -8%

# The list is partial; count on the stated rates, not on these rows.
